High-throughput results (PubChem)
PK Bst – Pyruvate Kinase; Potency, µM; AID 361, 2006; 51,000 tested, 1.2% active; partly purified Bacillus stearothermophilus pyruvate kinase, luminescence ATP production; ribose 5-phosphate activator present at AC10; in the data active means potency below about 11 µM; inconclusive means mostly about 12 µM to 25 µM; inactive means weaker than that;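 the screen sought inhibitors and activators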;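 further: potency means the concentration at half of the fitted maximal effect; scaled between full activation by ribose 5 phosphate and full inhibition by luteolin; about four in five hits inhibit and the cells do not say which; series up to 57 µM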
YjeE inh – qHTS Assay for Inhibitors of YjeE | tRNA threonylcarbamoyladenosine biosynthesis protein TsaE (Escherichia coli (strain … | purified YjeE, fluorescence polarisation of a bound ADP probe | Potency, µM | 71,000 tested, 0.05% active | AID 605, 2007; active = well fitted falling curve; inconclusive = weaker or top-dose-only fall, or a rising curve; inactive = flat or poorly fitted curve;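 further: top concentration of the series not given in the record; excess ADP was the control for the full effect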
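Purified YjeE (10 uM) with BODIPY Texas Red-labeled ADP probe (2 uM); compounds pin-transferred, 15 min at room temperature. Binding inhibition read as decreased fluorescence polarization; ADP titration as control.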
* = called active by the depositor; i = inactive; ? = inconclusive; · = not tested or not shown.

structure,PK Bst,YjeE inh
O=C(NCc1ccco1)c1cc2n(n1)C(C(F)(F)F)CC(c1ccc(Cl)c(Cl)c1)N2 (stereo not drawn),>57,i
CCN(CC)C(=O)CSc1nc2ccccc2c(=O)n1-c1cccc(OC)c1,>57,i
O=C(O)CCc1ccc(-c2ccc(F)cc2)n1Cc1ccco1,>57,i
CCOC(=O)N1CCC(NC(=O)C2CCN(c3ccc(N4CCOCC4)nn3)CC2)CC1,>57,i
CCCOC(=O)c1ccc(-n2nnnc2SCC(=O)N2CCCCC2)cc1,·,i
CC1(C)CC(=O)C=C(NCc2cccs2)C1,·,i
COc1ccc(OCC(=O)Nc2ccccc2OC(F)F)cc1,>57,i
Cc1cc(C)nc(N2CCCC(C(=O)Nc3ccc4c(c3)OCO4)C2)n1 (stereo not drawn),>57,i
O=C(Cn1nc(-c2ccccc2)c2ccccc2c1=O)Nc1ccccn1,·,i
Cc1cc(C(=O)OCC(=O)N2CCN(C(=O)c3ccco3)CC2)c(C)n1-c1ccc(F)cc1,>57,i
CCNCCNC(=O)c1c(O)c2cccc3c2n(c1=O)CCC3,>57,i
CC(C)CCn1c(N2CCC(C(N)=O)CC2)nc2c1c(=O)[nH]c(=O)n2C,>57,i

Continuation:
structure,PK Bst,YjeE inh
COCCn1c(SCC(=O)c2[nH]c(C)c(C(C)=O)c2C)nc2ccccc21,>57,i
CS(=O)(=O)N1CCC2(CCN(Cc3nccs3)CC2)CC1,·,i
Cc1ccc(N=C(c2cccs2)N2CCOCC2)cc1,>57,i
O=c1c(-c2ccccc2)nc2cnc(N3CCOCC3)nc2n1C[C@H]1CCCO1,·,i
CCN1CCN(/C=N/c2nc(C)cs2)CC1,>57,i
CC(=O)c1cccc(NC(=O)N[C@@H](CC(C)C)C(=O)O)c1,>57,i
O=C(COC(=O)C1c2ccccc2Oc2ccccc21)Nc1ccc2c(c1)OCO2,>57,i
O=C(CCC1CCCCC1)NCc1ccncc1,>57,i
O=C(COC(=O)Cc1cn2ccsc2n1)NC12CC3CC(CC(C3)C1)C2,>57,i
Fc1ccc(Cc2nnc(-c3cccs3)o2)cc1,·,i
Cc1nc(SCC(=O)Nc2c(C)n(C)n(-c3ccccc3)c2=O)[nH]c(=O)c1Cc1ccccc1,>57,i
Cc1cc(NC(=O)COC(=O)c2n[nH]c3ccccc23)no1,>11,i

Other structures:
structure,PK Bst,YjeE inh
COc1ccc(N(CC(=O)NCc2ccccc2)S(=O)(=O)c2c(C)noc2C)cc1,>57,i
CCc1cc2c(=O)c(-c3ccon3)c(N)oc2cc1OC,4.3*,i
Cc1cc2c3c(c1C)C1(C(=O)N3C(C)(C)CC2C)C(C#N)=C(N)Oc2n[nH]c(C)c21 (stereo not drawn),>57,i
Cn1c(CSc2ncn[nH]2)nc2ccccc21,>26,·
c1ccc(OCCCn2nnc(-c3ccncc3)n2)cc1,>57,i
CC1(C)CC(=O)C2=C(C1)OC(N)=C(C#N)C2c1ccccc1 (stereo not drawn),·,i
N#Cc1nc(-c2cccs2)oc1NCCCN1CCOCC1,>57,i
CCOC(=O)c1c(C)nc(-c2ccccc2)nc1NC(=O)CC,>57,i
COc1ccc(-c2cc3nc4c(c(=O)n3[nH]2)CCC4)cc1,i,i
CCNC(=O)[C@H]1O[C@H](n2cnc3c(N)nc(NCCc4ccc(CCC(=O)O)cc4)nc32)[C@@H](O)[C@@H]1O,·,i
Fc1ccc(OCCOCCNCC2CCCO2)cc1 (stereo not drawn),>26,·
CCOc1ccc(CNC(=O)CCn2c(=O)oc3ccccc32)cc1,>57,i

The list continues.
structure,PK Bst,YjeE inh
O=C(CSc1nnc(CNC(=O)c2c(F)cccc2Cl)o1)Nc1ccc2c(c1)OCCO2,>57,i
COc1ccc(NC2CC(=O)N(C)C2=O)cc1 (stereo not drawn),>26,·
Cc1nc(C)c2c(=O)cc(-c3ccccc3)[nH]c2n1,·,i
CC(=N/O)/C(=N\O)c1ccc(C)o1,>57,i
COc1cccc(NC(=O)c2ccc(S(=O)(=O)N3CCCCC3)cc2)c1,·,i
Cc1cc(C(=O)OCCO)c(C#N)c(N)n1,>57,i
Cc1cccc(-n2ncc(C#N)c2N)c1,>57,i
O=S(=O)(NC1CC1)c1ccc(S(=O)(=O)N2CCCc3ccccc32)cc1,>57,i
C[C@H](CCC(=O)O)[C@H]1CC[C@@H]2[C@@H]3CC[C@H]4C[C@@H](O)CC[C@@]4(C)[C@@H]3C[C@H](O)[C@@]21C,·,i
C=CCn1c(SCCN2CCOCC2)nc2c1c(=O)[nH]c(=O)n2C,>57,i
Cn1c2ccc(F)cc2c2ncn(CCN3CCOCC3)c(=O)c21,·,i
COc1ccc(CNC(=O)C(C)N(Cc2ccco2)C(=O)c2snc(C(N)=O)c2N)cc1 (stereo not drawn),>57,i

Other records:
structure,PK Bst,YjeE inh
Cc1c(C(=O)NCc2ccccn2)oc2ccc(S(=O)(=O)N3CCOCC3)cc12,>57,i
CC(=O)c1cccc(NC(=O)N2C3CCC2CC(O)(c2cccnc2)C3)c1 (stereo not drawn),i,i
COc1ccccc1NC(=O)Cn1c(=O)oc2ccccc21,>57,i
Cc1ccc(N=Nc2ccc(N)cc2C)c(S(N)(=O)=O)c1,·,i
CCC(NC(=O)c1ccccc1NC(=O)c1ccccc1)C(=O)O (stereo not drawn),>57,i
CC(C)(C)c1cc(NS(=O)(=O)c2ccc3c(c2)OCCO3)on1,>57,i
O=C(Cc1ccccc1)Nc1nnc(-c2ccco2)s1,>57,i
O=C(CSc1nc2ccccc2c(=O)n1Cc1ccco1)N1CCN(c2ccccc2)CC1,>57,i
CCn1c(=O)c(C(=O)NCCCO)c(O)c2ccccc21,>57,i
Cc1ccc(C2C(=O)N(C3CCCC3)CC(=O)N2CC2COc3ccccc3O2)cc1 (stereo not drawn),>57,i
CN1CCN(S(=O)(=O)c2ccc(N)cc2)CC1,·,i
Cc1cccc(OCc2nnc(SCC(=O)c3ccccc3)o2)c1,>57,i

PK Bst, hit marks shown above
structure,PK Bst,YjeE inh
CCc1cc2c(=O)c(-c3ccon3)c(N)oc2cc1OC,4.3*,i

The listing continues:
structure,PK Bst,YjeE inh
O=C(O)C1CCCN(S(=O)(=O)c2ccc(F)cc2)C1 (stereo not drawn),·,i
CCS(=O)(=O)c1ccc(S(=O)(=O)CC)s1,·,i
COc1ccc(N2C(=O)CC(NCc3ccncc3)C2=O)cc1 (stereo not drawn),>57,i
COc1cccc(-c2nn3c(-c4ccco4)nnc3s2)c1,i,·
CCOC(=O)c1oc2cc(O)ccc2c(=O)c1-c1csc(C)n1,>57,i
CCOc1cc(C(=O)Nc2ccc(S(=O)(=O)N3CCOCC3)cc2)cc(OCC)c1OCC,>57,i
CCN(CC)C(c1ccc(C)cc1)c1nnnn1C1CCCCC1 (stereo not drawn),>57,i
O=C(CCN1CCC(c2ccccc2)C1)c1cccs1 (stereo not drawn),>57,i
Nc1nc(OCC(F)(F)F)cc(Oc2ccccc2F)n1,·,i
CCOc1ccccc1CN1CCN(S(C)(=O)=O)CC1,>57,i
CCCc1cc(Nc2c(C)n(C)n(-c3ccccc3)c2=O)n2c(nc3ccccc32)c1C#N,>26,·
CCOc1cc(NC(=O)c2ccccn2)c(OCC)cc1NC(=O)CC(C)C,>57,i

Next section.
structure,PK Bst,YjeE inh
CCOC(=O)CSc1nc(N)cc(=O)[nH]1,>57,i
COc1ccc(CCNC(=O)CSc2nnnn2Cc2ccc3c(c2)OCO3)cc1OC,>57,i
O=c1c(-c2cc(F)cc(F)c2)nc2cnc(N3CCOCC3)nc2n1-c1ccccc1,·,i
Cc1occc1-c1nc(-c2ccccn2)no1,·,i
CCOC(=O)c1ccc(COC(=O)c2nonc2N)cc1,>57,i
N#Cc1nc(Cc2ccccc2)oc1N1CCN(c2ccccc2)CC1,>57,i
CCCCCCN=CC1=C(O)CC(C)(C)CC1=O,>57,i
CCc1nnc(NC(=O)CSc2nnc(-c3ccccc3NC(=O)c3ccccc3)o2)s1,>57,i
CN(C)C(=O)c1ccc(-c2ccc3ncnc(NC4CCNCC4)c3c2)cc1,·,i
O=C(CCc1ccccc1)OCCN1CCOCC1,>57,i
CS(=O)(=O)Nc1ccc(C(=O)NC2CCCC2)cc1,>57,i
CCCOc1ccc(-c2cnc(SCC(N)=O)nc2N)cc1,?,i

Further entries.
structure,PK Bst,YjeE inh
CCN(CC)C1CC(=O)N(c2cccc(C)c2)C1=O (stereo not drawn),·,i
CCNS(=O)(=O)c1cc(S(C)(=O)=O)ccc1Cl,>57,i
COc1cccc(NC(=O)CSc2nnc(-c3cc(-c4ccccn4)nc4ccccc34)o2)c1,>57,i
CCC(=O)Nc1nc(CC(=O)Nc2ccccc2)cs1,>57,i
COc1ccc2[nH]cc(CCNc3nc(-c4ccc(C(=O)N(C)C)cc4)nc4ccccc34)c2c1,·,i
CCCCOc1cccc(C(=O)O)c1,>57,i
CC(C(=O)c1ccccc1)n1cnc2ccccc2c1=O (stereo not drawn),>57,i
CCOC1(NC(=O)c2ccccc2)C(C)=CC(=O)C=C1C,>57,i
Cc1ccc(-c2nc3ncccc3o2)cc1NC(=O)Cc1ccc(Cl)cc1,·,i
COc1ccc(CC[N@+]2(C)COc3cc4oc(=O)cc(C)c4cc3C2)cc1OC,·,i
C=CCNc1nnc(SC2CC(=O)N(c3ccc(OC)cc3)C2=O)s1 (stereo not drawn),>26,·
CC1(C)CC(=O)C2=C(C1)N(Cc1ccco1)C(=O)C2(O)C(F)(F)F (stereo not drawn),>26,·

Compound profiles (already shown). Values in the order: PK Bst	YjeE inh
`CCNS(=O)(=O)c1cc(S(C)(=O)=O)ccc1Cl` is listed with >57	i
`CCCCOc1cccc(C(=O)O)c1` is listed with >57	i
`CCC(=O)Nc1nc(CC(=O)Nc2ccccc2)cs1` is listed with >57	i
`CC1(C)CC(=O)C2=C(C1)N(Cc1ccco1)C(=O)C2(O)C(F)(F)F` (stereo not drawn) is listed with >26	·

Next entries.
structure,PK Bst,YjeE inh
O=C(NC1CC2CCCC(C1)N2C(=O)NC1CCCCC1)c1ccccc1 (stereo not drawn),>57,i
CNC(=O)[C@]1(C)C[C@H]1[C@H](NC(=O)[C@]1(C)C[C@H]1[C@H](NC(=O)OCc1ccccc1)c1ccccc1)c1ccccc1,·,i
CCC1CCCCN1C(=O)Cn1c(C(=O)OC)cc2ccsc21 (stereo not drawn),>57,i
O=C(NCC1CCCO1)c1ccc2c(c1)OCO2 (stereo not drawn),·,i
Cn1cccc1Cc1nnc(SCC(=O)Nc2ccccc2F)n1CCc1ccccc1,·,i
CCCn1c(=O)c2ccccc2n2c(SCC(=O)c3cc(C)n(CCOC)c3C)nnc12,>57,i
OC[C@H]1NC[C@H](O)[C@@H](O)[C@H]1O,·,i
CCN(C(=O)CCN1C(=O)c2ccccc2C1=O)C1CCCCC1,>57,i
O=C(CN1C2=NCCCN2c2ccccc21)c1ccc(Br)s1,>57,i
CCOc1ccc(C(=O)N(CN2CCCC2=O)c2ccc(C)cc2)cc1,>57,i
O=C(CN1CCCCC1)NCCNC(=O)CN1CCCCC1,>57,i
CCOC(=O)N1CCC(NC(=O)c2cc(S(=O)(=O)N3CCCC3)cn2C)CC1,>57,i

Further records follow:
structure,PK Bst,YjeE inh
COc1ccc(C)cc1-n1nnnc1SCC(=O)N1CCC(C(=O)Nc2nccs2)CC1,>57,i
CC(C)(C)NC(=O)COC(=O)Cc1ccc(Cl)cc1,>57,i
CCC(O)(CCN1CCCCC1)c1ccccc1 (stereo not drawn),>57,i
COC(=O)c1ccc(C(c2c(N)n(Cc3ccccc3)c(=O)n(C)c2=O)N2CCOCC2)cc1 (stereo not drawn),>57,i
CNC(=O)CSc1nnc(-c2cc3c(C)nn(-c4ccccc4)c3s2)n1C,>57,i
CCOC(=O)Nc1cc(OC)c(OC)cc1Cc1nccc2cc(OC)c(OC)cc12,>57,i
COc1ccc(C(OC(=O)c2ccco2)C(=O)NCc2ccco2)cc1 (stereo not drawn),>57,i
COc1ccc(CN2C(=O)c3ccccc3C2C(=O)NCc2cccnc2)c(OC)c1 (stereo not drawn),>57,i
CCCC1O[C@@H]2C[C@H]3[C@@H]4CCC5=CC(=O)C=C[C@]5(C)[C@H]4[C@@H](O)C[C@]3(C)[C@]2(C(=O)CO)O1 (stereo partly drawn),>26,·
CCOc1ccc(N(CC(=O)Nc2ccc(F)c(F)c2)S(=O)(=O)c2c(C)noc2C)cc1,·,i
COc1ccc(-c2nc(C#N)c(NCc3ccccc3Cl)o2)cc1,>57,i
O=C(CSc1nnc(-c2ccco2)o1)NC1CCCCC1,·,i

The results go on.
structure,PK Bst,YjeE inh
CN1CCN(c2ccc(Cl)cc2NC(=O)c2nn(-c3ccccc3)c(=O)c3ccccc23)CC1,>57,i
CCCOC(=O)c1cccc(NC(=O)C(C)(C)C)c1,·,i
CC(=O)C1=C(O)C(=O)N(CCc2c[nH]c3ccccc23)C1c1ccc(O)cc1 (stereo not drawn),>57,i
COc1cccc(Nc2ncc3nc(-c4cc(F)cc(F)c4)c(=O)n(C4CC4)c3n2)c1,·,i
CC(=O)N1CCN(C(=O)COc2ccc(Br)cc2)CC1,>57,i
CS(=O)(=O)NCCSc1nnnn1-c1ccccc1,>57,i

Some of the compounds tested (hit frequency here may not be typical).
